# Cruzain Triton: blocks cruzain activity in presence of Triton detergent | P25779 | purified cruzain, Z-FR-AMC fluorescence, 0.01% Triton | Potency, µM, without a hit: max response, negative = inhibition, most hits filed as inhibitors | 0.43% of 200,000 active; active = well fitted curve in the direction sought with a large enough effect; inconclusive = small, poorly fitted or top-dose-only effect, or another doubt; inactive = no such curve, though single readings can be large; an effect the other way counts as inactive or inconclusive;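 note: plate controls were neutral wells for no effect and buffer without enzyme for full effect; nearly all actives have a fitted effect of over 40% in size; top concentration of the series not given in the record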
# Target sequence (P25779 123-467 limits assumed): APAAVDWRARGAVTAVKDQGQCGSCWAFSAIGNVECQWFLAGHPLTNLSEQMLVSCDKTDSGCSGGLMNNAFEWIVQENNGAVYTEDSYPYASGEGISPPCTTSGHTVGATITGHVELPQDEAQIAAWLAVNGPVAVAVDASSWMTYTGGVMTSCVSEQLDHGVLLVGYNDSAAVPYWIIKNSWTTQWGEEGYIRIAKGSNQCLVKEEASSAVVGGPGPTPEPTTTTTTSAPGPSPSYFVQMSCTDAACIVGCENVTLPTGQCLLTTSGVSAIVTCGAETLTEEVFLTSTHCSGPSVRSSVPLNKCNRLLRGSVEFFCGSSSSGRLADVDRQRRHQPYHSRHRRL
#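 Sodium acetate buffer (100 mM, pH 5.5) containing 5 mM DTT and 0.01% Triton X-100 hosted 1.5 nM cruzain and test compound for 15 min at room temperature. Cleavage of 2 uM Z-FR-AMC was then tracked by fluorescence.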
# RE007 growth inh: less growth of the S. pombe RE007 Vpr strain; AID 651644; Potency, µM (top dose mostly 92.2 µM), without a hit: at the highest dose activity change, negative = less growth; S. pombe RE007 Vpr strain, BacTiter-Glo ATP luminescence, 24 h; control for the full effect not named in the record; 0.21% of 360,000 active; active = well fitted falling curve with a large enough effect; inconclusive = small, poorly fitted or top-dose-only effect; inactive = no such curve, though single readings can be large or run the other way;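 note: % is set by controls: 0 for no effect and ±100 for the full control effect; nearly all actives have a fitted effect of over 50% in size; the assay follows cell death caused by Vpr and the record does not say whether a fall means rescue or toxicity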
#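 Fission yeast strain RE007, carrying one chromosomally integrated HIV-1 vpr copy, was seeded at OD 0.01 in PMG+AL medium with 23 nL pinned compound. After 24 h at 30 °C and 99% humidity, viability was read by BacTiter-Glo luminescence.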
# 2A StopGo: FMDV 2A StopGo reporter, luciferase signal | human cells with a luciferase reporter of 2A StopGo recoding; control for the full effect not named in the record | Potency, µM (series often up to 57.9 µM), without a hit: at the top dose signal change, negative = less light | 1.2% of 410,000 active | AID 1159524; active = well fitted falling curve with a large enough effect; inconclusive = small, poorly fitted or top-dose-only effect; inactive = no such curve, though single readings can be large or run the other way; tested in HEK293T cells; note: % is set by controls: 0 for no effect and ±100 for the full control effect; nearly all actives have a fitted effect of over 45% in size; luciferase light after 4 h
# SARS PLpro yeast: inhibitors of SARS-CoV papain-like protease in yeast; S. cerevisiae expressing SARS-CoV PLpro, growth rescue; control for the full effect not named in the record; Potency, µM (doses to about 32.9 µM), for the others: at the top dose activity, positive = growth rescue; 0.19% of 330,000 active; AID 485353; note: 0% is about no effect; nearly all actives have a fitted effect of over 55% in size; growth read by luminescence after 48 h
# NS1 inh: blocks influenza NS1 protein function | 0.4% of 270,000 active | S. cerevisiae slowed by influenza A NS1, growth recovery by OD600 | Potency, µM (series often up to 46.1 µM), inactives show at the highest dose activity, positive = more growth | AID 2326; note: actives are rising curves; nearly all actives have a fitted effect of over 50% in size
#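 Compounds were scored for reversing the slow growth caused by influenza A NS1 in S. cerevisiae, measured by optical density at 600 nm. Assay medium contained 2% galactose at pH 6.0; NS1-free yeast of the same strain were the positive control.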
# LASV entry inh: Lassa virus entry inhibition; Lassa virus pseudotype entry inhibition, cell reporter; control for the full effect not named in the record; Potency, µM (series often up to 37.9 µM), for the others: at the top dose activity change, negative = inhibition, actives largely listed as inhibitors; 1.2% of 300,000 active; AID 540256; active means well fitted inhibition curve with a large enough effect; inconclusive means small, poorly fitted or top-dose-only effect, or effect the other way; inactive means flat fitted curve, though single readings scatter; tested in HEK293 cells; note: % is set by controls: 0 for no effect and ±100 for the full control effect; nearly all actives have a fitted effect of over 50% in size; luciferase read-out
# MARV entry inh: blocks Marburg virus binding to or entry into cells. Marburg virus pseudotyped entry inhibition, cell reporter; control for the full effect not named in the record; about a third of the inactives were read at about 46 µM. 1.8% of 300,000 active. Potency, µM (doses to about 37.8 µM), without a hit: at the highest dose activity change, negative = inhibition, most hits filed as inhibitors. AID 540276; active = well fitted inhibition curve with a large enough effect; inconclusive = small, poorly fitted or top-dose-only effect, or effect the other way; inactive = flat fitted curve, though single readings scatter; tested in HEK293 cells; about a fifth of its hits are not listed in these tables; note: % is set by controls: 0 for no effect and ±100 for the full control effect; luciferase read-out
# Cruzain inh noDet: cruzain (T. cruzi) inhibition without detergent; purified cruzain, Z-FR-AMC fluorescence, no detergent; P25779; Potency, µM, inactives show max response, negative = inhibition, most hits filed as inhibitors; 2.3% of 200,000 active; active = well fitted curve in the direction sought with a large enough effect; inconclusive = small, poorly fitted or top-dose-only effect, or another doubt; inactive = no such curve, though single readings can be large; an effect the other way counts as inactive or inconclusive;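 note: plate controls were enzyme without inhibitor for no effect and buffer without enzyme for full effect; nearly all actives have a fitted effect of over 40% in size; top concentration of the series not given in the record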
#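 Detergent-free condition (0.00005% Triton X-100) in acetate buffer pH 5.5 with DTT. 1.5 nM enzyme and compound were pre-mixed 15 min, then 2 uM Z-FR-AMC substrate added; reaction progress from fluorescence change between first and third reads (60 s).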
# Numbers without * were called inactive; u = inconclusive; x = no result given; & = joins results of further samples; [ ] = dose if it differs, or a comment. Unless noted, calls come from the whole dose curve; as a rule, active means well fitted rising curve with a large enough effect; inconclusive means small, poorly fitted or top-dose-only effect; inactive means no such curve, though single readings can be large or run the other way. Potency is the fitted concentration of half-maximal effect.
SMILES	Cruzain Triton	RE007 growth inh	2A StopGo	SARS PLpro yeast	NS1 inh	LASV entry inh	MARV entry inh	Cruzain inh noDet
Cc1nc(N2CCC(C)CC2)c2c(C)c(C(=O)Nc3ccccc3C(F)(F)F)sc2n1	x	-11%	-12%	0%	2%	-5%	u	x
O=C(C=C(O)c1ccc(Cl)cc1)C(=O)NNC(=O)C(O)(c1ccccc1)c1ccccc1	x	7%	-24%	x	x	4%[46.1 µM]	u	x
CC(NC(=O)c1ccc(C(=O)c2ccccc2)cc1)c1ccc(S(N)(=O)=O)cc1 (centres undefined)	x	3%	0%	1%	x	-15%	-15%[46.1 µM]	x
Cc1sc(NC(=O)c2ccc(Cl)s2)c(C(N)=O)c1C	1.4%	-22%	53%[activator]	-5%	0%	u	u	u
COc1ccc(NC(=O)N2c3ccc(OC)cc3C(C)=CC2(C)C)cc1	-8.8%	-15%	-7%	-16%	-5%	3%	-2%	-13%
CC1(C)CC(=O)C(N=Nc2ccc(Cl)cc2)=C(O)C1	-5.0%	-5%	14%	24%	-5%	-2%	17%	0%
CCc1sc(N)nc1-c1ccccc1	3.5%	-9%	-27%	u	-12%	20%	12%	7%
Cc1ccc2oc(=O)c3cc(C(=O)NCCN4CCc5ccccc5C4)sc3c2c1	-15%	8%	9%	-7%	15%	8%	44%	-29%
COc1cc(OC)c(C=O)c(OC(=O)N2CCOCC2)c1	x	10%	-23%	-1%	-8%	x	x	x
O=C(Nc1nccs1)c1cccc(S(=O)(=O)N2CCOCC2)c1	4.5%	8%	-19%	-7%	7%	-4%	24%	-4%
Cn1c(SCC(=O)NC(=O)CN2CCCC2=O)nnc1-c1ccc(F)cc1	x	5%	22%	-1%	x	-1%[46.1 µM]	1%[46.1 µM]	x
COc1ccc(CCNC(=O)c2ccccc2N(C)S(=O)(=O)c2ccccc2)cc1	-3.1%	12%	5%	-4%	-8%	u	2%	0%
COc1ccc(C(=O)/C=C2\C(=O)Nc3ccc(Br)cc32)cc1	x	5%	-25%	x	x	-7%	u	x
Cc1ccc(OCC(=O)Nc2ccc(NC(=O)c3ccccc3)cc2)cc1C	x	-11%	9%	-3%	1%	-13%	-20%[46.1 µM]	x
Cc1ccc2c(c1)COc1c3ccc(C(=O)NCC4CC4)cc3nn1-2	x	-4%	7%	-1%	-45%	x	x	x

# Laid out differently: results already given
# Each structure is followed by: Cruzain Triton | RE007 growth inh | 2A StopGo | SARS PLpro yeast | NS1 inh | LASV entry inh | MARV entry inh | Cruzain inh noDet
- Cc1nc(N2CCC(C)CC2)c2c(C)c(C(=O)Nc3ccccc3C(F)(F)F)sc2n1
 : x | -11% | -12% | 0% | 2% | -5% | u | x
- O=C(C=C(O)c1ccc(Cl)cc1)C(=O)NNC(=O)C(O)(c1ccccc1)c1ccccc1
 : x | 7% | -24% | x | x | 4%[46.1 µM] | u | x
- CC(NC(=O)c1ccc(C(=O)c2ccccc2)cc1)c1ccc(S(N)(=O)=O)cc1 (centres undefined)
 : x | 3% | 0% | 1% | x | -15% | -15%[46.1 µM] | x
- Cc1sc(NC(=O)c2ccc(Cl)s2)c(C(N)=O)c1C
 : 1.4% | -22% | 53%[activator] | -5% | 0% | u | u | u
- COc1ccc(NC(=O)N2c3ccc(OC)cc3C(C)=CC2(C)C)cc1
 : -8.8% | -15% | -7% | -16% | -5% | 3% | -2% | -13%
- CC1(C)CC(=O)C(N=Nc2ccc(Cl)cc2)=C(O)C1
 : -5.0% | -5% | 14% | 24% | -5% | -2% | 17% | 0%
- CCc1sc(N)nc1-c1ccccc1
 : 3.5% | -9% | -27% | u | -12% | 20% | 12% | 7%
- Cc1ccc2oc(=O)c3cc(C(=O)NCCN4CCc5ccccc5C4)sc3c2c1
 : -15% | 8% | 9% | -7% | 15% | 8% | 44% | -29%
- COc1cc(OC)c(C=O)c(OC(=O)N2CCOCC2)c1
 : x | 10% | -23% | -1% | -8% | x | x | x
- O=C(Nc1nccs1)c1cccc(S(=O)(=O)N2CCOCC2)c1
 : 4.5% | 8% | -19% | -7% | 7% | -4% | 24% | -4%
- Cn1c(SCC(=O)NC(=O)CN2CCCC2=O)nnc1-c1ccc(F)cc1
 : x | 5% | 22% | -1% | x | -1%[46.1 µM] | 1%[46.1 µM] | x
- COc1ccc(CCNC(=O)c2ccccc2N(C)S(=O)(=O)c2ccccc2)cc1
 : -3.1% | 12% | 5% | -4% | -8% | u | 2% | 0%
- COc1ccc(C(=O)/C=C2\C(=O)Nc3ccc(Br)cc32)cc1
 : x | 5% | -25% | x | x | -7% | u | x
- Cc1ccc(OCC(=O)Nc2ccc(NC(=O)c3ccccc3)cc2)cc1C
 : x | -11% | 9% | -3% | 1% | -13% | -20%[46.1 µM] | x

# Next part:
SMILES	Cruzain Triton	RE007 growth inh	2A StopGo	SARS PLpro yeast	NS1 inh	LASV entry inh	MARV entry inh	Cruzain inh noDet
CCNc1ccccc(C(=O)/C=C/c2ccc3c(c2)OCO3)c1=O	-22%	-17%	u	-12%	-2%	-17%	-1%	u
COC(=O)c1ccc(C2OCC(C)(C)CO2)cc1	x	5%	60%[activator]	-1%	x	-1%	u	x
COc1ccc(CN2CCCC(CO)(Cc3cccc(Cl)c3)C2)cc1OC (centres undefined)	x	-16%	0%	0%	7%	-42%[46.1 µM]	u	x
COc1ccc(NC(=O)C2CC(=O)NC3=C2C(=O)CC(C)(C)C3)cc1 (centres undefined)	7.6%	-1%	-16%	10%	-4%	0%	-7%	-6%
Cc1cc(Br)c(OCC(=O)NN)c2c1CCC2	x	-10%	-15%	-2%	10%	x	x	x
Nc1cc2c(cc1Br)-c1ccc(F)cc1C2O (centres undefined)	x	-22%	21%	x	x	27%[46.1 µM]	5%[46.1 µM]	x
O=C(NCCCN1CCN(CCCNC(=O)c2ccccc2F)CC1)c1ccccc1F	-2.2%	0%	-11%	-4%	17%	25%	0%&0%	-16%
O=C1NC(=O)C(=Cc2cc([N+](=O)[O-])ccc2N2CCCCC2)C(=O)N1	x	2%	-4%	7%	x	16%[46.1 µM]	11%[46.1 µM]	x
Cc1c(C)n(Cc2ccccc2)c2ccc(C(=O)NCc3ccco3)cc12	-5.3%	x	23%	x	x	-10%[46.1 µM]	x	u
O=C(COc1ccccc1C(=O)NCC1CCCO1)Nc1ccc(Br)cc1 (centres undefined)	x	7%	3%	0%	x	u	-20%[46.1 µM]	x
COc1ccc(NC2CCCN(C(=O)CCN3CCCC3=O)C2)cc1OC (centres undefined)	x	4%	-9%	3%	7%	10%	10%	x
COc1ccc(-c2nnn(CC(=O)N(CC(=O)NC3CCCC3)c3cccc(C)c3)n2)cc1OC	-2.1%	-7%	-10%	-4%	8%	1%	2%	u
Cc1ccccc1NC(=O)/C(C#N)=C/c1ccsc1	-1.9%	-28%	0%	-3%	3%	1%	u	10%
Nc1c(C(=O)NCCc2ccccc2)nnn1Cc1ccc(Cl)cc1	-3.3%	11%	3%	19%	-3%	14%	2%	2%
O=C(O)[C@H]1CCCC[C@H]1C(=O)Nc1ccc(S(=O)(=O)N2CCCCC2)cc1	x	-11%	-11%	1%	14%	27%	1%[46.1 µM]	x
Cc1ccccc1S(=O)(=O)Cc1ccc(C(=O)NCCCN(C)Cc2ccccc2)o1	x	-1%	5%	-3%	-8%	23%[46.1 µM]	u	x
Cc1nc(SCC(=O)NC2CCCC2)c2c(C)c(C)sc2n1	x	-2%	-22%	-1%	-9%	7%	25%[46.1 µM]	x
O=[N+]([O-])c1ccc2nc(N3CCNCC3)ccc2c1	-13%	-11%	-21%&5%	x	-8%	u	u	-5%
Cc1ccc(N(C)C(=O)c2cc(S(=O)(=O)N3CCc4ccccc43)cn2C)cc1	x	-2%	u	0%	-1%	x	x	x
